Rango release inh – qHTS Assay for Inhibitors of RanGTP induced Rango (Ran-regulated importin-beta cargo) - Importin beta complex dissociation. Snurportin-1 (Homo sapiens) + GTP-binding nuclear protein Ran (Homo sapiens) + Importin …. Biochemical FRET Rango-importin beta, RanGTP-induced dissociation. Potency, µM (highest dose often 46.1 µM), for the others: at the top dose activity change, negative = inhibition. hit rate 0.071% among 340,000; active means falling FRET ratio curve, often poorly fitted, with flat reads before Ran was added; inconclusive means other falling curves, or compound fluorescence or quenching; inactive means flat or rising ratio curve;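 note: potency is the fitted concentration of half-maximal effect; % of control where 0% means no effect; nearly all actives have a fitted effect of over 45% in size; -100% = wells without RanGTP and RCC1; the record marks most hits as doubtful in a second field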
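FRET read at 45 min, room temperature: inhibitors block the CFP/YFP signal rise when RanGTP (0.6 uM Ran, 2 mM GTP, 0.2 uM RCC1) frees Rango (0.1 uM) from importin beta (0.25 uM). Pre-read after 5 min compound exposure flags interference.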
miR-21 reporter – qHTS Assay for Modulators of miRNAs and/orActivators of miR-21; HeLa miR-21 FLuc reporter, luciferase, 48 h; Potency, µM (top dose mostly 38.3 µM), for inactives: at the top dose reporter change, positive = more light; 340,000 tested, under 10 active; active = well fitted rising curve with a large enough effect; inconclusive = small, poorly fitted or top-dose-only effect; inactive = no such curve, though single readings can be large or run the other way;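 note: % of control where 0% means no effect; miR-21 action dims this reporter so a rising signal means less miR-21 action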
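HeLa cells endogenously expressing miR-21, stably carrying CMV-driven firefly luciferase with a downstream miR-21 binding site, 2000 cells/well. Titrations up to approximately 40 uM, 48 hours; luciferase luminescence read.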
GLA inh pH 4.5 – qHTS Assay for Inhibitors of Human alpha-Galactosidase at pH 4.5 | purified enzyme, 4-MU-alpha-Gal fluorescence, pH 4.5 | 230,000 tested, under 10 active | activity change, negative = inhibition, % at 105 µM; inconclusive = small, poorly fitted or top-dose-only inhibition, or a rising curve; inactive = flat fitted curve, though single readings scatter; no compound was filed as active;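 note: 0% = full activity with enzyme and -100% = basal without enzyme; dose as in the result columns while the protocol names 77 µM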
Rango complex inh – qHTS Assay for Inhibitors of Rango (Ran-regulated importin-beta cargo) - Importin beta complex formation | Potency, µM (titrated, usually from 92.2 µM), for the others: at the highest dose inhibition of complex formation | Importin subunit beta-1 (Homo sapiens), Q14974 | hit rate 0.031% among 340,000 | Rango CFP/YFP FRET sensor + importin beta, 45 min | AID 540263, 2011; active = rising FRET ratio curve, often small or poorly fitted; inconclusive = mostly compound fluorescence or quenching in the first reads; inactive = flat curves in all reads;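 note: potency is the fitted concentration of half-maximal effect; 0% = DMSO wells and 100% = buffer wells lacking importin beta; nearly all actives have a fitted effect of over 15% in size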
Target sequence (Q14974 whole entry, looked up): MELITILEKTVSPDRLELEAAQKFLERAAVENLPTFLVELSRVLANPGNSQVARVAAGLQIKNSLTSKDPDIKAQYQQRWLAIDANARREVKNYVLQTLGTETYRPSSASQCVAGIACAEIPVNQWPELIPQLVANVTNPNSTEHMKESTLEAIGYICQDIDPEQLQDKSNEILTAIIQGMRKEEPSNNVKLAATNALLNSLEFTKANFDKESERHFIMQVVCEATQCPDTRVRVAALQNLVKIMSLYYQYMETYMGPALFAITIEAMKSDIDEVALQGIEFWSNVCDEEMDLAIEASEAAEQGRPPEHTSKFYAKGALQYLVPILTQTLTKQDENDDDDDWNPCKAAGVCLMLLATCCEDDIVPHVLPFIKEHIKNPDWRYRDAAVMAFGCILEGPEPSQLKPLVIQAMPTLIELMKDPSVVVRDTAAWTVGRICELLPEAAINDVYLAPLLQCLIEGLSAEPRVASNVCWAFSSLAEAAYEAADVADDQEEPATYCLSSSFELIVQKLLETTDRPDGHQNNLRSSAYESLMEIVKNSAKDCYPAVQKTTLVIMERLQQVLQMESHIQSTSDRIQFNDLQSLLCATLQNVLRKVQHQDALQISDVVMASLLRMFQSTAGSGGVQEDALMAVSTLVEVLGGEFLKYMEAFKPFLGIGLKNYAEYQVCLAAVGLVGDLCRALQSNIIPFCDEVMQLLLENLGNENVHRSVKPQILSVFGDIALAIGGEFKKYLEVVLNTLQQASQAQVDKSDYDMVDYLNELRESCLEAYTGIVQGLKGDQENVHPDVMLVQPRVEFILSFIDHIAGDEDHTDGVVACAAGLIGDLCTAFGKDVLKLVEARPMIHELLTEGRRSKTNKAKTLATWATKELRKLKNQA
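Inhibition scored from the CFP 486 nm/YFP 530 nm FRET ratio 45 min after adding 0.125 microM importin beta to 50 nM Rango biosensor preincubated 5 min with compound (room temperature, PBS with DTT, Tween-20, BSA). No-importin wells as positive control.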
Numbers without * were called inactive; ? = inconclusive; . = no result given; [ ] = dose if it differs, or a comment.

Rango release inh | miR-21 reporter | GLA inh pH 4.5 | Rango complex inh | smiles
0.4% | -30.5% | 1.3 | 1.9% | Cc1cc(-n2c(C)cc(C(=O)CN3C(=O)NC4(CCCC4)C3=O)c2C)no1
3.8% | -3.0% | . | 1.8% | CC(C)(C)OC(=O)N1CCC(c2c(C(=O)NCC3CCN(C4CCCC4)C3)cnn2-c2ccc(F)cc2)CC1 (stereo not given)
-5.5% | -6.3% | -11.7 | -0.6% | Cc1cccc(CS(=O)(=O)Cc2ccc(C(=O)NCCCN3CCCC3)o2)c1
-3.9% | . | . | 1.3% | C[C@@H]1COC(=O)[C@H](Cc2ccc(F)cc2)CC/C=C\C[C@@H](CC(=O)NCCO)C(=O)N1
2.1% | 0.9% | . | 0.2% | O=C(O)C1CCCCC1C(=O)NC1C2CC3CC(C2)CC1C3 (stereo not given)
11.7% | . | . | -2.1% | CC(C)Cc1nnc(NC(=O)C2=COCCO2)s1
1.0% | -10.4% | -8.1 | 0.9% | Cc1c(NC(=O)COC(=O)c2cc3c4ccccc4n(C)c3s2)c(=O)n(-c2ccccc2)n1C
-1.6% | . | . | -1.3% | CCN(CC(=O)NCc1cccs1)CC(=O)Nc1ccccc1C
-14.6% | -3.5% | 3.6 | -3.0% | C[C@@H]1C(=O)O[C@@H]2[C@H](O)C34[C@H]5C[C@@H](C(C)(C)C)C36[C@H](OC(=O)[C@@H]6O)OC4(C(=O)O5)[C@@]12O (stereo not given in full)
4.9% | -21.6% | -0.2 | 2.2% | CC(C)(C)c1ccc(/C=C/C(=O)NC2CCS(=O)(=O)C2)cc1 (stereo not given)
-13.6% | 26.6% | -24.9 | 3.3% | CC(C)c1ccccc1NC(=O)COC(=O)c1c2c(nc3ccccc13)CCN(Cc1ccccc1)C2
-21.2% | -24.3% | -3.3 | -1.2% | O=C(/C(=C(\[O-])c1ccccc1)[n+]1ccc2ccccc2c1)c1ccc(Cl)cc1
14.9% | -4.3% | 11.4 | -2.5% | O=C(Nc1ccccc1-c1nc2ccccc2s1)C1=COCCO1
-1.5% | -2.3% | -4.3 | 1.6% | CCCCc1nc2ccccc2c(=O)n1NC(=O)c1c(O)c2cccc3c2n(c1=O)CC3
-1.6% | -9.3% | -2.2 | -1.7% | CCC(=O)N1CCc2cc(Br)cc(S(=O)(=O)NCC3CCCN3CC)c21 (stereo not given)
-0.3% | -2.3% | -0.5 | -3.9% | O=C(NCCCn1ccnc1)c1cc(S(=O)(=O)N2CCOCC2)c(Cl)cc1Cl
-6.8% | -64.6% | ? | -6.0% | N#Cc1ccccc1NC(=O)c1ccc2c(Cl)c3c(nc2c1)CCCC3
8.0% | -1.4% | . | 5.1% | COc1ccc(CCNc2nc(C)nc3c2nnn3Cc2ccccc2)cc1
-19.8% | -6.4% | 4.0 | -5.1% | O=C(N/N=C/c1ccccc1)c1n[nH]c2c1CCCC2
-23.9% | . | . | -2.4% | CC(=NNC(=O)CSc1nc2ccccc2o1)c1ccco1
-1.5% | -45.9% | 0.0 | 0.4% | O=C(NC(=S)NCCc1ccccc1)c1ccccc1
5.3% | -1.8% | . | 6.6% | COCc1cc(C)n(CC(=O)Nc2ccc3c(c2)OCO3)c(=O)c1C#N
-10.4% | -0.1% | -1.9 | -4.3% | CCOc1ccc(N2CC(C(=O)Nc3ncccc3C)CC2=O)cc1 (stereo not given)
-2.3% | -12.2% | -0.9 | ? | O=S(=O)(c1cccc(-c2nc3ccccc3s2)c1)N1CCOCC1
7.7% | -3.0% | 2.7 | -1.1% | Cc1ccc2[nH]c(=O)c(CN(Cc3cccnc3)Cc3nnnn3CC3CCCO3)cc2c1 (stereo not given)
12.6% | 6.8% | -0.3 | 4.1% | Cc1cccc(S(=O)(=O)CC(=O)Nc2nc(-c3ccccc3)cs2)c1
0.5% | . | . | ? | COc1ccc([C@H]2CC(=O)C=C(c3ccc(Cl)c(Cl)c3)C2)cc1
12.2% | -4.3% | -10.6 | 2.2% | CC(C)N(C(=O)CSc1nnc(NC(=O)C2CCC2)s1)C(C)C
-1.2% | -29.0% | 2.1[21.1 µM] | 0.5% | CCc1ccc(NC(=O)Cc2c(C(=O)O)n(C)c3ccccc23)cc1
2.2% | . | . | -0.6% | O=C(Nc1ncccc1O)c1ccc(S(=O)(=O)Nc2ccccc2)cc1

In another format: entries from further up.
> CC(C)Cc1nnc(NC(=O)C2=COCCO2)s1
  Rango release inh = 11.7%
  miR-21 reporter = .
  GLA inh pH 4.5 = .
  Rango complex inh = -2.1%
> Cc1c(NC(=O)COC(=O)c2cc3c4ccccc4n(C)c3s2)c(=O)n(-c2ccccc2)n1C
  Rango release inh = 1.0%
  miR-21 reporter = -10.4%
  GLA inh pH 4.5 = -8.1
  Rango complex inh = 0.9%
> CCN(CC(=O)NCc1cccs1)CC(=O)Nc1ccccc1C
  Rango release inh = -1.6%
  miR-21 reporter = .
  GLA inh pH 4.5 = .
  Rango complex inh = -1.3%
> C[C@@H]1C(=O)O[C@@H]2[C@H](O)C34[C@H]5C[C@@H](C(C)(C)C)C36[C@H](OC(=O)[C@@H]6O)OC4(C(=O)O5)[C@@]12O (stereo not given in full)
  Rango release inh = -14.6%
  miR-21 reporter = -3.5%
  GLA inh pH 4.5 = 3.6
  Rango complex inh = -3.0%

Next results follow:
Rango release inh | miR-21 reporter | GLA inh pH 4.5 | Rango complex inh | smiles
5.2% | -2.4% | 6.6 | -1.1% | COc1ccc(-c2ccc(-c3nnc(-c4cc(OC)ccc4OC)o3)cc2)cc1
5.9% | 0.6% | 7.4 | 2.1% | N/C(=N\OC(=O)CCCOc1ccccc1)c1cccc(Br)c1
6.1% | 1.5% | 4.4 | -1.3% | CC1(C)C(=O)CC[C@]2(C)C3C(=O)C=C4[C@H]5C[C@@](C)(C(=O)O)CC[C@]5(C)CC[C@]4(C)[C@]3(C)CC[C@@H]12 (stereo not given in full)
-14.5% | . | . | 0.5% | CC(=NNC(=S)N1CCC1)c1ccccn1
5.2% | . | . | 0.1% | COc1ccc(NC(=O)CN(C)C(=O)c2cc(-c3ccc(OC)cc3)nc3ccccc23)cc1
-7.8% | . | . | 0.1% | CCCCCCCCCCNC(=O)CCn1[nH]c(=O)c2ccccc2c1=O
-18.5% | 27.0% | . | -2.1% | CCN(CC)CCCNc1nc2ccccc2c2nc(-c3ccncc3)nn12
3.5% | -12.4% | 1.7 | 2.6% | O=C(NCc1cn2ccccc2n1)c1ccc2c(c1)OCO2
? | -11.0% | -3.9 | ? | Cc1ccc(Nc2nc(Cl)c(C=O)s2)cc1
8.4% | . | . | -0.3% | Cc1ccc(S(=O)(=O)N2CCN(C(=O)Cn3nc(C)c([N+](=O)[O-])c3C)CC2)cc1
-10.2% | -0.4% | . | -2.4% | Cc1ccc(N(CC(=O)NCc2ccccc2Cl)S(=O)(=O)c2c(C)noc2C)cc1
-0.5% | -2.0% | . | -1.0% | C[C@H]1CCC(=O)N([C@H](CC#N)Cc2ccccc2)CC1
2.9% | 5.0% | . | 0.5% | COc1cc(NC(=O)C2CCC(=O)N2S(=O)(=O)c2ccc(C)cc2)cc(OC)c1 (stereo not given)
11.5% | -2.1% | 2.9 | 0.7% | Cc1ccc(NC(=O)COC(=O)CN2C(=O)c3ccccc3C2=O)cc1S(=O)(=O)N(C)C
0.4% | 1.4% | -0.5 | 3.3% | Cc1ccc(SCc2cc(=O)[nH]c(Nc3nc(C)c4ccccc4n3)n2)cc1
-7.0% | 2.8% | 0.3 | -3.6% | Cc1nc2c(C)cccc2c2c1CCS2
-11.8% | 7.0% | . | 1.7% | Cc1ccc(-c2cc(-c3ccccc3)nc(N(C)N)n2)cc1
-9.7% | 0.3% | 3.0 | 2.4% | Cc1cnc(C(=O)Oc2c(C)ccc(C)c2C)cn1
9.8% | -56.4% | -0.7 | -1.1% | COc1cc(C=O)c(Br)cc1OCc1ccc(C)cc1
? | -3.8% | -1.5 | ? | N#Cc1c2c(c(-n3cnc4ccccc43)n3c1nc1ccccc13)CCC2
-3.0% | 1.2% | -0.4 | 0.1% | Cc1ccc(SCC(=O)NC(=O)NCCC(C)C)c(C)c1
-1.5% | -3.0% | 6.7 | -1.9% | CCC(=O)Nc1ccc(S(=O)(=O)N2CCOCC2)cc1
-5.1% | 6.3% | 2.6 | 0.4% | CN(c1ccc(OCC(=O)NCc2cccnc2)cc1)S(=O)(=O)c1ccc(Cl)cc1
? | -2.7% | . | -2.0% | CCOC(=O)c1c(S(=O)(=O)N2CCN(C)CC2)c(C)n(C)c1C
-12.2% | 1.0% | . | 2.4% | COc1cc(CN(CC2CCCO2)C(=O)c2cccs2)cc(OC)c1OC (stereo not given)
-7.6% | . | . | -3.0% | CCOC(=O)NC1CCc2cc(OC)c(OC)c(OC)c2-c2ccc(SC)c(=O)cc21 (stereo not given)
-2.7% | 0.7% | 6.1 | -2.6% | Nc1cccc(Cl)c1N1CCOCC1
9.0% | -0.9% | 7.5 | -3.5% | COc1cc(/C=N/NC(=O)c2c(-c3ccccc3)noc2C)ccc1O
-5.4% | -0.2% | -0.6 | 4.1% | O=C(CSc1cccc[n+]1[O-])N1CCCCCC1
-5.4% | . | . | ? | CCCN(C(=O)COC(=O)CNC(=O)c1ccc2ccccc2c1)c1c(N)n(Cc2ccccc2)c(=O)[nH]c1=O

(further entries)
Rango release inh | miR-21 reporter | GLA inh pH 4.5 | Rango complex inh | smiles
-20.5% | -0.5% | 0.8 | 3.1% | Cc1ccc(NC(=O)C(C)N2C(=O)c3ccccc3C2=O)nc1 (stereo not given)
9.1% | . | . | 1.2% | CCOC(=O)C1=C(COC(=O)CNS(=O)(=O)c2c(F)cc(F)cc2Br)NC(=O)NC1C (stereo not given)
1.9% | 3.8% | 0.7 | -1.4% | NC(=O)CC[C@@H]1NC(=O)[C@H](CO)NC(=O)c2cc([N+](=O)[O-])cc(I)c2NCC[C@@H](C(N)=O)NC1=O
9.8% | 1.2% | -6.4 | 0.3% | O=C1C(NS(=O)(=O)c2ccccc2)=C(N2CCN(c3ccc(F)cc3)CC2)C(=O)c2ccccc21
-7.9% | -3.8% | 4.6 | 2.1% | O=C(COc1ccccc1F)NCc1nc2ccccc2[nH]1
2.9% | 20.0% | -17.0 | 1.7% | CC(C)c1ccc(C(O)P(=O)(OC2CCCCC2)OC2CCCCC2)cc1 (stereo not given)
0.7% | 9.7% | 3.1 | -1.7% | CCCCn1nc(C(=O)NC2=NCCS2)c2ccccc2c1=O
0.8% | -3.2% | -5.9 | -4.4% | CCOc1ccc(/C=C2\SC(N3CCc4ccccc4C3)=NC2=O)cc1
? | -37.6% | -13.0 | ? | COC(=O)/C(=C\C(=O)c1ccccc1)Nc1cccc(C(F)(F)F)c1
16.7% | -48.9% | 7.4 | -0.3% | N#Cc1cn(-c2ccccc2)nc1-c1ccc2c(c1)OCCO2
18.6% | -0.1% | . | 5.3% | CSCC[C@H](NC(=O)[C@H](Cc1ccccc1)n1c(=O)[nH]c2ccccc2c1=O)C(=O)N1CCC[C@@H]1C(=O)O
1.1% | -13.8% | 2.9 | 4.3% | CNc1c([N+](=O)[O-])cnn1-c1ccc(Cl)cc1Cl
1.5% | -7.9% | 17.4 | 3.3% | Cc1cccc(NC(=S)NCCC(C)C)c1
7.2% | -11.6% | -9.1 | -4.3% | O=S(=O)(c1ccc(Cl)cc1)n1c(Cc2ccccc2)nc2ccccc21
. | 1.5% | 2.5 | . | CN1CCN(S(=O)(=O)c2ccc(N(C)CC(=O)Nc3ccc(F)cc3)nc2)CC1
17.3% | 9.2% | . | 0.9% | O=C(CCn1cccn1)N1CCCC(N2CCN(c3cccc(C(F)(F)F)c3)CC2)C1 (stereo not given)
0.6% | . | . | 1.2% | CCCCCC(=O)N(Cc1ccccc1)c1c(N)n(CCOC)c(=O)[nH]c1=O
5.5% | 11.3% | . | 4.5% | C(=N\Nc1nncc2ccccc12)/c1ccccn1

Screening data from PubChem BioAssay.

Some of the compounds tested (hit frequency here may not be typical).
